From PubChem
Pin1 inhibitor – inhibitors of human Pin1; Potency, µM (series often up to 115 µM), without a hit: at the highest dose activity, negative = inhibition, hits mostly inhibitors; Pin1 FP peptide displacement, HiFluor488, 10 min; Q13526; 390,000 tested, 0.009% active; AID 504891; active means well fitted inhibition curve with a large enough effect in the polarisation, with a control signal flat, not every such curve was filed as active; inconclusive means small, poorly fitted or top-dose-only effect, or effect the other way, or a change in a side signal; inactive means no such curve, though single readings can be large or run the other way; the % refers to the polarisation; further: on the % scale 0 is the no-effect control and ±100 the full control effect
Target sequence (Q13526 whole entry, looked up): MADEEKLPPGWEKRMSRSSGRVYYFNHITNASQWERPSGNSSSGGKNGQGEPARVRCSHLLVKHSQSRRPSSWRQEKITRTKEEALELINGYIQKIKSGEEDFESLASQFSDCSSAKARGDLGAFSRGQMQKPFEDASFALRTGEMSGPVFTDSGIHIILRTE
12-LOX inh – blocks human arachidonate 12S-lipoxygenase; purified 12hLO, xylenol orange hydroperoxide absorbance; P18054; Potency, µM (series often up to 108 µM), for the others: at the top dose activity change, negative = inhibition, hits mostly inhibitors; 580,000 tested, 1.1% active; AID 1671190; further: on the % scale 0 is the no-effect control and ±100 the full control effect
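Purified human 12hLO at 150 nM in 25 mM Hepes, 0.01% Triton X-100, pH 7.0, preincubated 15 min at room temperature with compound. Reaction started with 40 uM arachidonic acid, 30 min at room temperature. Hydroperoxide measured by Fe-xylenol orange, 573/405 nm absorbance ratio.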
TrxR1 inh – blocks rat thioredoxin reductase 1; recombinant rTrxR1, NADPH fluorescence consumption, selenite substrate; Potency, µM (series often up to 114 µM), for the others: at the top dose activity change, negative = inhibition, most hits filed as inhibitors; 390,000 tested, 1% active; AID 588453; further: on the % scale 0 is the no-effect control and ±100 the full control effect; nearly all actives have a fitted effect of over 65% in size
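Rat TrxR1 (90 nM in the dispensed reagent) was pre-reduced with 400 uM NADPH for 5 min at room temperature, then incubated with compound for 15 min. After 400 uM selenite was added, NADPH fluorescence (Ex 340/Em 450 nm) was followed for 8 min.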
PGK inhibitor – T. brucei PGK inhibition | P07378 | PGK/GAPDH coupled, Kinase-Glo luminescence, 60 min | Potency, µM (titrated, usually from 57.5 µM), for the others: at the highest dose activity change, negative = inhibition, hits mostly inhibitors | 380,000 tested, 0.043% active | AID 602233; further: on the % scale 0 is the no-effect control and ±100 the full control effect; nearly all actives have a fitted effect of over 60% in size
Target sequence (P07378 whole entry, looked up): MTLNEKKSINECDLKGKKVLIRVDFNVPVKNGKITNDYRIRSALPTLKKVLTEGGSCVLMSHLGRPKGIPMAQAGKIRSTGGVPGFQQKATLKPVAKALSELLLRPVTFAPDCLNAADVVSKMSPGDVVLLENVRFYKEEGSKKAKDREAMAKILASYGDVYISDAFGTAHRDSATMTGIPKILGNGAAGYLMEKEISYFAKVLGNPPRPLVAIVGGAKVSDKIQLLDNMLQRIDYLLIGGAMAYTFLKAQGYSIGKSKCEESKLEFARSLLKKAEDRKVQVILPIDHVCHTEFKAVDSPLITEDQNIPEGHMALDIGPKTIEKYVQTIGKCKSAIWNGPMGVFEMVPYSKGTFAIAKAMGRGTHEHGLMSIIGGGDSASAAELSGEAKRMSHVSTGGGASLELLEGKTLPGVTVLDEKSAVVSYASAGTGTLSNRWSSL
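Recombinant glycosomal PGK reaction used 1,3-bisphosphoglycerate generated in-well by GAPDH (100nM final) in 100mM TEA pH 7.6, 5mM MgCl2, 0.01% Tween-20. After 60 minutes at room temperature, ATP was read by Kinase-Glo Plus luminescence end-point.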
ERG-DNA inh – inhibitors of human ERG Ets domain-DNA interaction; P11308; 370,000 tested, 0.028% active; AID 624246; fluorescence polarization, His-ERG Ets domain / labelled DNA; Potency, µM (doses to about 76.9 µM), inactives show at the highest dose FP activity, negative = inhibition, actives largely listed as inhibitors; active means well fitted inhibition curve with a large enough effect in the polarisation, with a control signal flat; inconclusive means small, poorly fitted or top-dose-only effect, or effect the other way, or a change in a side signal; inactive means no such curve, though single readings can be large or run the other way; the % refers to the polarisation;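 further: polarization taken with two DNA probes labelled with fluorescein and Texas red; % of control where 0% means no effect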
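His-tagged ERG Ets domain (1 uM in the protein solution; 300mM KCl, 50mM Tris-HCl, 1mM EDTA, 1mM DTT, pH 7.5) received compound, then a probe mix of 5 nM fluorescein-DNA and 100nM Texas-615-DNA. Fluorescence polarization was read for both dyes.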
* marks the source's active call; other numbers are inactive results; i = inactive; ? = inconclusive; / = no result given; [ ] = remark or other dose. Unless noted, the call rests on the fitted dose curve; in most records, active means well fitted curve in the direction sought with a large enough effect; inconclusive means small, poorly fitted or top-dose-only effect, or another doubt; inactive means no such curve, though single readings can be large; an effect the other way counts as inactive or inconclusive. Potency means the concentration at half of the fitted maximal effect. A portion of the library. The share of hits here may be higher or lower than overall.

1: CCOc1cc2c(cc1OCC)-n1cccc1C(c1ccc(C(C)C)cc1)NC2 (stereo unspecified)
2: CC[C@@H](CO)NC(=O)[C@H]1C=C2c3cccc4[nH]cc(c34)C[C@H]2N(C)C1
3: Cc1cccc([N+](=O)[O-])c1
4: CC[C@H]1CN2CCc3cc(OC)c(OC)cc3[C@@H]2C[C@@H]1C[C@H]1NCCc2cc(OC)c(OC)cc21
5: CC[C@H]1CN2CCc3cc(OC)c(OC)cc3C2C[C@@H]1C[C@H]1NCCc2cc(OC)c(OC)cc21 (stereo partly specified)
6: Clc1ccc(OCC#CCN2CCCCCC2)cc1
7: O=C1CC[C@@]2(O)C3Cc4ccc(O)c5c4C2(CCN3CC2CC2)[C@H]1O5 (stereo partly specified)
8: CC1CCN(CC(=O)c2cccc(C(F)(F)F)c2)CC1
entry no.	1	2	3	4	5	6	7	8
Pin1 inhibitor	-0.3%	/	-0.7%	-3.0%	-4.5%	-8.4%	/	5.4%
12-LOX inh	?	119.9%[activator]	0.0%	?	?	?	/	?
TrxR1 inh	0.8%[57.1 µM]	/	11.1%	12.9%[57.1 µM]	4.1%	2.8%	10.1%[57.1 µM]	-4.4%
PGK inhibitor	-9.4%	/	i	-8.0%	-3.9%	-5.1%	/	-3.2%
ERG-DNA inh	-12.1%	/	14.5%	-0.5%	21.7%	3.7%	/	6.4%

9: O=C1CC[C@@]2(O)[C@H]3Cc4ccc(O)c5c4[C@@]2(CCN3CC2CC2)[C@@H]1O5
10: C[C@]12CCC(=O)C[C@H]1CC[C@@H]1[C@@H]2CC[C@]2(C)C(=O)CC[C@@H]12
11: O=C1CC[C@@]2(O)[C@H]3Cc4ccc(O)c5c4C2(CCN3CC2CC2)[C@H]1O5
12: CCOc1ccc(CN2CCN(C(=O)Cc3ccccc3)CC2)cc1
13: Cc1ccc(C(C)C)c(OCC#CCN2CCCC2)c1
14: CN(c1ccccc1)c1ccc([N+](=O)[O-])c2nonc12
15: Cc1ccc(OCC(=O)N2CCN(Cc3ccc(F)cc3)CC2)cc1
16: CC(C)c1ccc(C2NCc3ccccc3-n3cccc32)cc1 (stereo unspecified)
17: O=C(OCc1cc(=O)n2nc(C3CC3)sc2n1)c1ccc(NC(=O)c2ccccc2Cl)cc1
18: O=C1CC[C@@]2(O)[C@H]3Cc4ccc(O)c5c4[C@@]2(CCN3CC2CC2)[C@H]1O5
19: Cc1ccc(OCC(=O)N2CCN(CC3CC4C=CC3C4)CC2)cc1 (stereo unspecified)
entry no.	9	10	11	12	13	14	15	16	17	18	19
Pin1 inhibitor	/	-0.2%	/	5.0%	0.3%	?	-3.2%	2.9%	?	1.0%	-1.7%
12-LOX inh	0.0%	-2.2%	0.0%	?	?	30.3%	?	-21.9%	-8.2%	-2.5%	?
TrxR1 inh	/	21.8%	/	18.7%	-10.0%	-1.6%[57.1 µM]	-0.5%	-19.9%	8.3%[57.1 µM]	-14.7%	8.4%[57.1 µM]
PGK inhibitor	/	-3.9%	/	-1.1%	-5.1%	-0.7%	/	-6.9%	-5.4%	6.3%	i
ERG-DNA inh	/	12.5%	/	2.6%	-6.5%	11.2%	6.8%	-1.6%	7.7%	5.6%	5.5%

Taken from the listing, 11 compounds:
6: Clc1ccc(OCC#CCN2CCCCCC2)cc1
7: O=C1CC[C@@]2(O)C3Cc4ccc(O)c5c4C2(CCN3CC2CC2)[C@H]1O5 (stereo partly specified)
8: CC1CCN(CC(=O)c2cccc(C(F)(F)F)c2)CC1
9: O=C1CC[C@@]2(O)[C@H]3Cc4ccc(O)c5c4[C@@]2(CCN3CC2CC2)[C@@H]1O5
10: C[C@]12CCC(=O)C[C@H]1CC[C@@H]1[C@@H]2CC[C@]2(C)C(=O)CC[C@@H]12
11: O=C1CC[C@@]2(O)[C@H]3Cc4ccc(O)c5c4C2(CCN3CC2CC2)[C@H]1O5
12: CCOc1ccc(CN2CCN(C(=O)Cc3ccccc3)CC2)cc1
13: Cc1ccc(C(C)C)c(OCC#CCN2CCCC2)c1
14: CN(c1ccccc1)c1ccc([N+](=O)[O-])c2nonc12
15: Cc1ccc(OCC(=O)N2CCN(Cc3ccc(F)cc3)CC2)cc1
entry no.	6	7	8	9	10	11	12	13	14	15
Pin1 inhibitor	-8.4%	/	5.4%	/	-0.2%	/	5.0%	0.3%	?	-3.2%
12-LOX inh	?	/	?	0.0%	-2.2%	0.0%	?	?	30.3%	?
TrxR1 inh	2.8%	10.1%[57.1 µM]	-4.4%	/	21.8%	/	18.7%	-10.0%	-1.6%[57.1 µM]	-0.5%
PGK inhibitor	-5.1%	/	-3.2%	/	-3.9%	/	-1.1%	-5.1%	-0.7%	/
ERG-DNA inh	3.7%	/	6.4%	/	12.5%	/	2.6%	-6.5%	11.2%	6.8%

16: CC(C)c1ccc(C2NCc3ccccc3-n3cccc32)cc1 (stereo unspecified)
entry no.	16
Pin1 inhibitor	2.9%
12-LOX inh	-21.9%
TrxR1 inh	-19.9%
PGK inhibitor	-6.9%
ERG-DNA inh	-1.6%
